Source: PubChem (ICCB-Longwood Screening Facility, Harvard Medical School)
Ab BasE inh = inhibitors of Acinetobacter baumannii siderophore enzyme BasE; purified BasE, fluorescence polarization binding displacement; inhibition, % (no concentration beside the values); actives 0.1% (n = 84,000);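 active means both replicates above 25% with normal brightness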;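 further: 0% = negative plate control signal and 100% = positive plate control signal; stock transfer was 100 nL into about 30 µL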
LANA-nucl inh = inhibitors of KSHV LANA binding to nucleosomes. FITC-LANA1-23 / chicken nucleosome fluorescence polarization; stronger effect = lower value. z-score (test concentration not listed). actives 0.3% (n = 51,000). AID 720717;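 active means both repeat wells score below -2 in polarization z-score versus plate sample wells, excluding overly bright wells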;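 further: 100 nL library stock added to about 30 µL; numbers are from one replicate; some results filed as inactive read as strong as hits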
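Material: Purified chicken nucleosomes with FITC-labelled LANA N-terminal peptide (1-23) | Reagent: 50 nM FITC-LANA1-23 probe | Medium: TEN-BT buffer, pH 7.5 | Times: 10–45 min incubation at room temperature | Detection: Fluorescence polarization | Replication: Duplicates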
* hit, by the source's call; x = no result given. Not all compounds are listed (hit frequency here may not be typical).

SMILES	Ab BasE inh	LANA-nucl inh
CN(C)/C=C(\C#N)S(=O)(=O)c1ccccc1	-2.2	-0.76
CC1=NN(c2ccccc2)C(=O)C1/C=C1\C(=O)NC(=O)N(c2ccccc2)C1=O (configuration not stated)	-0.2	0.053
O=C(NCCc1ccccc1)c1c(O)c2cccc3c2n(c1=O)CC3	-0.1	-0.141
C1=CCC(CN2CCN(CC3CC4C=CC3C4)CC2)CC1 (configuration not stated)	-2.1	1.08
CC1CCC(C(C)C)C(NCc2ccccc2)C1 (configuration not stated)	-1.5	x
COC(=O)Cc1ccc2c3ccccc3n(C)c2c1	-1.0	-0.123
O=C(NCc1ccccn1)C1CCCCC1	4.9	0.168
Cc1c(CCC(=O)O)c(=O)oc2cc3occ(-c4ccc(Br)cc4)c3cc12	0.3	2.23
O=c1ccc(-c2ccc(Cl)cc2)n[nH]1	-0.6	2.03
COC(=O)CCc1nc2ccccc2nc1OC	0.4	0.011
Cc1cc(C)c2[nH]c(=O)c(CN(Cc3ccc(F)cc3)Cc3nnnn3CC3CCCO3)cc2c1 (configuration not stated)	0.2	0.528
Cc1cccc(Nc2nc(-c3ccccc3)no2)c1	0.4	-0.03
C=CCn1c(NC(=O)c2ccccc2)c(C(=O)OCC)sc1=S	2.1	x
O=C1CC(c2ccc(S(=O)(=O)NCc3ccco3)cc2)CN1 (configuration not stated)	-2.3	0.214
COc1ccc(NC(=O)CN(C)C2CCCCC2)c(OC)c1	2.9	x
Cc1ccc(-c2nn(CC(=O)N(C)C)c(=O)c3ccccc23)cc1	3.3	x
NS(=O)(=O)c1cccc(C(=O)Nc2ccc(F)cc2)c1	-0.3	-0.536
CC1(C)CC(=O)C2=C(C1)N=C1c3ccccc3C(=O)C1C2c1cccc(Br)c1 (configuration not stated)	-0.1	x
Cc1ccc(S(=O)(=O)CCC(=O)Nc2ccc3c(c2)nc2n3CCCCC2)cc1	-2.3	x
CC(C)N1CCN(c2ccc(OC[C@@H]3CO[C@@](Cn4cncn4)(c4ccc(Cl)cc4Cl)O3)cc2)CC1	1.4	-0.319

Part of the list above, set out differently.
SMILES | Ab BasE inh | LANA-nucl inh
Cc1cccc(Nc2nc(-c3ccccc3)no2)c1 | 0.4 | -0.03
C=CCn1c(NC(=O)c2ccccc2)c(C(=O)OCC)sc1=S | 2.1 | x
O=C1CC(c2ccc(S(=O)(=O)NCc3ccco3)cc2)CN1 (configuration not stated) | -2.3 | 0.214
COc1ccc(NC(=O)CN(C)C2CCCCC2)c(OC)c1 | 2.9 | x

Later entries:
SMILES	Ab BasE inh	LANA-nucl inh
O=C1CSC(=S)N1CCc1ccc(Cl)cc1	0.5	x
O=C(NCC1CCCO1)C1CCCN(C(=O)N2CCOc3ccccc32)C1 (configuration not stated)	1.0	-0.38
COc1cc2c(c(O)c1OC)C(=O)C(OC)CCC2 (configuration not stated)	1.3	x
O=C(COC(=O)CSc1ncnc2sccc12)Nc1nnc(-c2ccccc2)o1	0.4	x
O=C(NC1CCS(=O)(=O)C1)c1sc2ccccc2c1Cl (configuration not stated)	1.8	-0.819
COc1ccc(S(=O)(=O)c2n[nH]n3c2nc(=O)c2ccccc23)cc1	0.4	-0.766
O=C(Nc1ccccc1)c1ccc(=O)[nH]n1	0.2	-0.971
COc1cccc2c1c(NC(=O)Nc1ccc(F)cc1F)nn2C	-0.6	0.525
CCOC(=O)NC(=S)Nc1ccc(C(C)(C)C)cc1	3.2	x
COc1ccc(CNC(=O)CNCc2ccco2)cc1OC	3.1	x
C=CCNC(=O)c1ccc(CN2CCOCC2)cc1	2.3	-0.879
O=C(CN1C(=O)c2ccccc2C1=O)Oc1cccc2cccnc12	19.1	-0.616
O=C(OC1CCOC1=O)c1ccc(-c2nc3ccccc3s2)s1 (configuration not stated)	-0.3	x
Cc1ccc(CN2CCN(N=Cc3ccc(Br)s3)CC2)c(C)c1	3.0	0.286
COc1ccc(/C(N)=N/OC(=O)COc2ccccc2C)cc1OC	1.8	-0.96
C1=C(N2CCOCC2)Cc2ccccc21	1.4	x
N=C1/C(=C\c2ccc(-c3cccc(C(=O)O)c3)o2)C(=O)N=C2SC(N3CCCCC3)=NN12	9.3	-0.175
CC(C)CN(C(=O)c1ccc(=O)n(C)n1)c1nc2ccccc2s1	2.3	x
CNc1ccccc1C(=O)N/C(N)=N\c1nc(C)c2ccccc2n1	-1.4	0.134
CCN(CC)Cc1c(O)ccc2oc(C)c(C(=O)Nc3ccccc3C)c12	1.7	-0.784
CCOC(=O)N1CCN(S(C)(=O)=O)CC1	-0.8	0.925
Cc1cc(=O)[nH]c(SCC(=O)Nc2c(C)n(C)n(-c3ccccc3)c2=O)n1	2.4	x
C=CCOc1cccc(NC(=O)Nc2ccccc2)c1	1.3	0.268
c1ccc2[nH]c(CSc3nnnn3C3CCCCC3)nc2c1	0.0	0.933
O=C(O)C1C2C=CC(C2)C1C(=O)Nc1ccc(Cl)cc1 (configuration not stated)	3.3	x
O=C(O)c1ccccc1SCC1CCCO1 (configuration not stated)	-0.1	x
Cc1noc(C)c1CSc1ccccc1C(=O)Nc1nc(SCc2ccc(Cl)cc2)n[nH]1	-2.3	x
CCn1c(=O)c(-c2c(C)[nH]c3ccccc23)nc2cc(S(=O)(=O)N(C)C)ccc21	-3.3	x
O=C(CC(=O)Nc1ccccc1OC(F)(F)F)Nc1ccccc1OC(F)(F)F	0.1	x
O=C(/C=C/c1ccco1)N(Cc1cccs1)C1CCS(=O)(=O)C1 (configuration not stated)	1.7	x

Reformatted with bars between the fields: entries from further up
SMILES | Ab BasE inh | LANA-nucl inh
Cc1cc(=O)[nH]c(SCC(=O)Nc2c(C)n(C)n(-c3ccccc3)c2=O)n1 | 2.4 | x
C=CCOc1cccc(NC(=O)Nc2ccccc2)c1 | 1.3 | 0.268

Additional compounds follow.
SMILES	Ab BasE inh	LANA-nucl inh
O=C(CCC1CCCC1)N1CCN(C(=O)c2cccnc2)CC1	6.6	-0.0765
CCC(C)c1ccc(NC(=O)CC#N)cc1 (configuration not stated)	2.1	x
COc1cccc(NC(=O)COc2coc(CSc3nncn3C)cc2=O)c1	1.1	0.562
Cc1ccc(C(NC=O)c2ccccc2)cc1 (configuration not stated)	2.3	x
Cc1ccc2c(c1)c1nc3ccccc3nc1n2C(C)C	23.1	x
CCOC(=O)c1c(C)nc2c(c1-c1cccnc1)C(=O)c1ccccc1-2	0.7	-0.07
CCOC(=O)c1c(C)n(C)c2ccc(OCC(O)CN3CCCCCC3)cc12 (configuration not stated)	-24.8	0.192
CCSc1nnc(-c2cccs2)n1Cc1ccccc1	1.3	x
O=C(OC1CCOC1=O)c1cc(-c2ccco2)nc2ccccc12 (configuration not stated)	5.5	x
O=C(/C=C\c1ccco1)Nc1c2c(nn1-c1ccc(Cl)cc1)CSC2	-14.0	0.183
O=C1c2ccccc2C2CC(c3ccc(Cl)cc3)=NN12 (configuration not stated)	-0.5	-0.452
CN(C)c1ccnc2sc(C(N)=O)c(N)c12	5.1	-1.33
CSc1ccccc1NC(=O)c1cc(-c2ccccc2)on1	0.7	0.378
CCOC(=O)c1c(C)oc2nc(COc3cc(Cl)ccc3Cl)nc(N)c12	0.3	x
Cc1cccnc1Nc1nc(-c2cccnc2)cs1	21.6	-0.631
O=C(COC(=O)C1CC2C=CC1C2)Nc1cccc(C(F)(F)F)c1 (configuration not stated)	-0.7	x
Cc1cc2cc(CN(Cc3ccccc3)C(=O)N(C)C)c3nnnn3c2cc1C	2.3	0.24
COc1ccccc1NC(=O)Cc1noc(CSc2cccc[n+]2[O-])n1	1.9	x
O=C(COc1ccc(Cl)cc1Cl)NCCO	-0.9	x
COC1=CC(=O)C=C(OC)C1=O	1.2	-1.19
O=C1C(C=NC2CCCCCC2)=C(O)c2ccccc21	-3.2	0.243
CCn1cc(CNC(=O)CCCSc2nc(-c3ccco3)cc(C(F)(F)F)n2)cn1	1.5	0.201
CC12CN3CC(C)(CN(C1)C3c1ccccc1)C2=O (configuration not stated)	0.6	-0.501
CC(C)[C@H](NC(=O)CNC(=O)OC(C)(C)C)C(=O)N[C@H](C=O)C(C)C	-1.5	-0.132
COc1ccc(NC2SC(=O)N(c3ccccc3)C2=O)cc1 (configuration not stated)	-5.0	0.752
CCSc1nnc2nc(C)cc(C)n12	-1.6	0.122
C1CCN(c2nc(N3CCCC3)nc(N3CCNCC3)n2)C1	0.8	-0.372
Cc1cccc(Nc2nc(C)cc(C)c2C#N)c1	3.0	x
CC1CCCC(C)N1C(=O)COC(=O)c1ccc(N2C(=O)c3ccccc3C2=O)cc1 (configuration not stated)	3.1	x
O=C(COc1ccccc1)OC1OCCOC1OC(=O)COc1ccccc1 (configuration not stated)	-1.0	x
CNC(=O)CN(C)Cc1c(O)c(C(=O)NCc2ccccc2)cc2ccccc12	0.6	x
COCCNC(=O)c1ccc(C(=O)NCCOC)cc1	4.8	0.928
CCNc1nc2nc3ccc(C)cn3c(=O)c2cc1C(=O)NCC1CCCO1 (configuration not stated)	0.7	-0.027
CC(=O)N/N=C/c1ccc(-c2ccc(F)c(Cl)c2)o1	-0.5	-0.163
CC(CN1CCCC1)OC(=O)c1cc(C(C)(C)C)cc(C(C)(C)C)c1 (configuration not stated)	-0.3	x
C/C(CC1CC(COCCC(C)C)OC1=O)=N\NC(N)=S (configuration not stated)	1.1	-0.375
C/C(Cn1nnc2ccccc21)=N/OC(=O)c1c(F)cccc1F	52.7*	0.504
Cc1ccc(/C=C/C(=O)Nc2ccc3nc4n(c(=O)c3c2)CCCC4)cc1	-0.7	-0.241
CCn1c(=O)c(=O)[nH]c2cc(S(=O)(=O)N(C)C)ccc21	-0.6	x
NS(=O)(=O)c1ccc(C2CCCCC2)cc1	-1.0	-0.939
COc1ccc(-c2cn3nc(N4CCCC(C(=O)Nc5cc(Cl)ccc5C)C4)sc3n2)cc1 (configuration not stated)	0.7	-0.478
CCN1C(=O)c2cccc3c(S(=O)(=O)NCCCn4ccnc4)ccc1c23	1.9	x
c1ccc2c(c1)nc(N1CCCC1)c1nncn12	-0.6	x
COc1cccc(NC(=O)C(c2ccccc2)N2CCCCC2)c1 (configuration not stated)	0.6	x
Cc1nc(-c2ccccc2)sc1C(=O)NCC1CCCO1 (configuration not stated)	0.4	-0.242
Cn1nc(C(F)(F)F)c(C#N)c1Oc1ccccc1	x	-1.28
CCOC(=O)C1CCCN(C(=O)c2cccc(NC(=O)C(CC)CC)c2)C1 (configuration not stated)	1.8	-0.023
S=C(Nc1ccccn1)NC1CC2CCC1C2 (configuration not stated)	-1.0	x
CC(C)NC(=O)COc1cccc2ccccc12	-4.0	x
Cc1nc(COc2ccccc2Cl)sc1C(=O)/C=C/N(C)C	-1.8	x

Looked up one by one from the list above:
SMILES	Ab BasE inh	LANA-nucl inh
CCN1C(=O)c2cccc3c(S(=O)(=O)NCCCn4ccnc4)ccc1c23	1.9	x
Cn1nc(C(F)(F)F)c(C#N)c1Oc1ccccc1	x	-1.28
c1ccc2c(c1)nc(N1CCCC1)c1nncn12	-0.6	x
CC(C)NC(=O)COc1cccc2ccccc12	-4.0	x

(list continues)
SMILES	Ab BasE inh	LANA-nucl inh
CSc1ccc(/C=N/NC(=O)C2CC2)cc1	-3.3	1.05
Cc1ccc(S(=O)(=O)/N=S(\C)c2ccccc2)cc1 (configuration not stated)	-1.4	x
Cc1cc2ncn(CCc3ccccc3)c2cc1C	-4.4	0.138
CC1=NN(C(=O)COc2ccccc2C)C(O)(c2ccc(Cl)cc2)C1 (configuration not stated)	-2.4	1.99
Cc1cccc2c(C(=O)O)cc(-c3cccnc3)nc12	0.7	-0.289
Nc1nnc(SCC(=O)N2CCc3ccccc32)s1	1.8	x
NS(=O)(=O)c1ccc(N=Cc2c(O)[nH]c3ccccc23)cc1	4.4	-0.011
O=C(COC(=O)Cc1ccc(Br)cc1)NCc1ccco1	1.6	x
CSc1sc(Cl)c(Cl)c1S(=O)(=O)C(C)C	-1.7	0.431
Nc1[nH]ncc1-c1ccsc1	x	0.671

Complete entries as entered above. Order of values: Ab BasE inh | LANA-nucl inh
Results for CC(C)[C@H](NC(=O)CNC(=O)OC(C)(C)C)C(=O)N[C@H](C=O)C(C)C : -1.5 | -0.132
Results for C=CCNC(=O)c1ccc(CN2CCOCC2)cc1 : 2.3 | -0.879
Results for Cc1ccc(-c2nn(CC(=O)N(C)C)c(=O)c3ccccc23)cc1 : 3.3 | x
Results for Cc1cc2ncn(CCc3ccccc3)c2cc1C : -4.4 | 0.138
Results for Cc1cccnc1Nc1nc(-c2cccnc2)cs1 : 21.6 | -0.631

(next part)
SMILES	Ab BasE inh	LANA-nucl inh
COC(=O)c1c(C)[nH]c(C(=O)C(C)N2CCCc3ccccc32)c1C (configuration not stated)	1.8	x
CC(=O)N1CCC(C(=O)OCC#N)(c2ccccc2)CC1	-3.7	x
CSc1cccc(N/C=C(/C#N)c2ccsc2)c1	x	1.03
Cc1c(C(=O)NCC(C)C)oc2c1ccc1ccccc12	-8.6	x
Cn1nnc2c(sc3nc(N4CCOCC4)c4c(c32)CCCC4)c1=O	2.2	x
O=C(c1ccccc1)N(Cc1ccco1)CC(O)Cn1c2ccccc2c2ccccc21 (configuration not stated)	0.9	0.713
CCOc1ccc(OCCN2C(=O)NC(Cc3c[nH]c4ccccc34)C2=O)cc1 (configuration not stated)	-0.9	x
CCN(CC(=O)NCc1cccs1)c1ccc(S(=O)(=O)N2CCCC2)cn1	-0.4	x
COc1ccc(N2CC(NC(=O)NCC3CCCO3)CC2=O)cc1OC (configuration not stated)	-1.1	1.88
COc1ccc(CC(=O)n2[nH]c(=O)c3ccccc3c2=O)cc1OC	2.6	0.353
